Screening data from PubChem BioAssay.
BJeLR viability: MLPCN primary cell-based screen for lethality selective to Ras in HRASV12 cells; inhibition, % (no concentration beside the values); AID 1554, 2009; 300,000 compounds, 0.17% hits; BJeLR (HRASV12) viability, CellTiter-Glo ATP luminescence, 48 h; reference of the scale not given here;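 active means replicate mean above 50%; inconclusive means above 50% but judged a plate artefact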;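 further: 50 nL library stock added to about 25 µL; numbers are from one replicate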
ugtP null kill: growth inhibition of ugtP-null S. aureus, primary screen, RN4220 ugtP deletion, OD600; 16 h; some inactives read as strong as hits; growth inhibition, % (concentration not given with the values); 330,000 compounds, 0.54% hits;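 active means z-score under -3 and OD600 up to 0.15 on both plates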;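 further: plate controls were untreated wells for no effect and antibiotic for full effect; wells of about 80 µL received 100 nL stock; the first replicate is given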
PrP 5UTR inh: inhibition of PrP 5' UTR reporter expression | cell-based PrP 5' UTR mRNA reporter, plate reader | 340,000 compounds, 0.35% hits | inhibition, % (test concentration not listed);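 active means every replicate at 50% or more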;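 further: 0 = median of the neutral control wells; tested in H4 reporter cells; numbers are from one replicate; inactives centre near -14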
Bead autofluor: flagged as autofluorescent in microsphere protease counterscreen; compound autofluorescence counterscreen, microsphere flow cytometry; hits give high values; fluorescence intensity (concentration not given with the values); 360,000 compounds, 3.1% hits;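 active means at least 3 SD above the mean of all compounds, about 16000 in these data; inconclusive means too few beads counted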;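 further: 100 nL of 1 mM stock went into each well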
Sa RN4220 lethal: growth inhibition of S. aureus RN4220, primary screen, OD600. 16 h. inhibition, % (no concentration beside the values). 330,000 compounds, 0.33% hits. AID 1259311, 2017;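 active means z-score of -3 or lower and OD600 up to 0.18 on both plates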;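 further: plate controls were untreated cells for no effect and reference antibiotic for full effect; stock transfer was 100 nL into about 80 µL; one replicate is shown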
Mtb hypoxia inh: PubChem AID 1159583 | 300,000 compounds, 0.1% hits | fluorescence inhibition, % (concentration not given with the values) | M. tuberculosis hypoxia-regulated fluorescent reporter, fluorescence;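 active means 35 to 45% if threefold the growth effect, above 45% if 1.5-fold the growth effect; inactive means the rest, general growth blockers included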;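 further: wells of about 50 µL received 100 nL stock; 0% = vehicle wells and 100% = reference inhibitor wells; whole bacteria with a GFP reporter of the hypoxia response; strong numbers were not always called active; many hits fall short of the cut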
Mtb hypoxia inh growth: recorded beside Mtb hypoxia inh, whose call it bears; growth inhibition, %; measured here: M. tuberculosis growth (absorbance);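 0% = vehicle and 100% = reference antibiotic; read after six days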
* marks the source's active call; other numbers are inactive results; ? = inconclusive; nt = not tested or not shown.

SMILES	BJeLR viability	ugtP null kill	PrP 5UTR inh	Bead autofluor	Sa RN4220 lethal	Mtb hypoxia inh	Mtb hypoxia inh growth
Clc1cc(-c2ccc(C=Nn3cnnc3)o2)ccc1Br	nt	-4	nt	nt	-3.7	4	-1
CCOc1cc(CNc2ccc(N3CCCC3)cc2)cc(Cl)c1OC	3	7	-27	6576	0.7	14	1
Cc1cccc(OCc2nc(C#N)c(N3CCCC3)o2)c1	14	4	3	4714	3.1	22	8
COc1ccc(-c2[nH]ncc2CN2C[C@@H]3CCC[C@H]2C3)c(F)c1	-8	2	-24	5196	1.4	7	5
CC(=O)c1cc2c(cc1NC(=O)CN1CCN(c3ccc(F)cc3)CC1)OCO2	0	-5	-16	2986	2.0	6	11
COc1ccc(CC2c3cc(O)c(OC)cc3CC[N+]2(C)[O-])cc1O (stereo not given)	nt	6	nt	nt	7.3	2	3
Cn1cc(CN2CCN(Cc3cccnc3)CC2)c(-c2ccc3c(c2)OCCO3)n1	-6	-6	6	4596	-1.5	-19	-3
N#Cc1c(SCC(=O)Nc2nc3ccccc3s2)sc2c(O)cc(=O)[nH]c12	nt	-11	-12	3812	7.6	-1	-3
Cc1ccc(-n2nnnc2SCc2nnc(-c3ccccc3Br)o2)c(C)c1	-5	-3	-18	5812	6.3	9	13
CCOc1ccc(C(=O)Nc2ccncc2)cc1	-11	16	-35	6982	4.1	2	7
COc1ccc2[nH]c(=O)c(CN(c3ccccc3)S(=O)(=O)c3ccccc3)cc2c1	3	1	-4	5693	3.4	-1	-5
O=C(CCc1cnccn1)NC1CCCc2c1cnn2-c1ccc(F)cc1F (stereo not given)	-1	-1	-35	2713	2.5	6	3
Cc1ccccc1Nc1nc(NCc2ccco2)c2ccccc2n1	-2	0	-18	4887	-31	-14	-7
CC(=NNC(=O)c1ccccc1NC(=O)c1ccc(Cl)cc1)c1ccncc1	nt	4	nt	nt	8.3	-8	-1
O=C(N=C1SC2CS(=O)(=O)CC2N1c1cccc(Cl)c1Cl)C1CC1 (stereo not given)	5	4	-31	5502	0.0	2	-2
COc1ccc(CCNC(=O)C(Sc2ccccn2)c2ccccc2)cc1OC (stereo not given)	-3	10	-26	5783	4.1	11	1
CN(c1ccccc1)S(=O)(=O)c1ccc(C(=O)N2CCN(c3ccccc3Cl)CC2)cc1	nt	2	-7	?	8.0	-7	2
COc1ccc(CCNC(=O)c2ccccc2OCc2ccccc2)cc1	14	-6	-17	6376	-2.7	3	2
Nc1nc(-c2ccco2)nn1S(=O)(=O)c1ccccc1	6	6	-22	4014	3.2	12	4
COc1cccc(Cn2nnc(C(=O)NCc3ccc4c(c3)OCO4)c2N)c1	0	8	-8	2757	-1.7	2	-1
CC(=O)NCCC(Cc1ccccc1)c1ccco1 (stereo not given)	-2	-1	4	4129	6.5	nt	nt
C=C1CCN(C(C)C(=O)NCc2ccc(Cl)cc2)S(=O)(=O)c2ccccc21 (stereo not given)	nt	2	nt	nt	2.0	0	2
Cc1ccc(NC(=O)CCN2C(=O)NC3(CCCC3)C2=O)cc1S(=O)(=O)N1CCOCC1	nt	-3	-14	3813	-3.9	-2	-5
COc1ccc(-c2nsc3c(N4CCCCC4C)ncnc23)cc1 (stereo not given)	1	31	87*	4417	17	0	5
CCC(C)NC(=O)CSc1ccc(S(=O)(=O)N2CCN(Cc3ccccc3)CC2)cn1 (stereo not given)	nt	9	-24	8423	-1.9	8	7
CCCCC1S/C(=N/N=Cc2ccco2)NC1=O (stereo not given)	nt	6	nt	nt	4.6	7	-1
CN(C1CCCCC1)C(CNS(=O)(=O)c1ccccc1)c1ccccc1 (stereo not given)	-6	6	-13	5644	3.8	3	-5
Cc1[nH]c2ccc(Br)cc2c(=O)c1CN1CCCCC1	9	-5	-4	8167	3.5	15	3
CN(C(=O)COC(=O)CSCc1cccc(Cl)c1)c1c(N)n(Cc2ccccc2)c(=O)[nH]c1=O	nt	1	-2	8598	-0.4	0	-3
Cc1nc(CN(C)C(=O)c2cc(COc3ccc4ncccc4c3)on2)cs1	17	10	-32	4730	3.6	2	11
Cc1nnc2ccc(-c3ccc(NS(=O)(=O)c4ccc(Cl)s4)cc3)nn12	nt	3	-18	?	7.5	1	5
COc1cc(C(=O)NCc2ccc(-c3nc4ccccc4o3)cc2)cc(OC)c1OC	2	-5	-13	2288	-5.8	nt	nt
COc1ccccc1NCC(=O)NN=C(C)c1cccs1	nt	-4	nt	nt	-0.1	2	3
O=C(CCC(=O)N/N=C/c1ccc(Br)s1)NCc1ccccc1	-3	nt	-14	2153	nt	nt	nt
O=C(COC(=O)C(Cc1ccccc1)NC(=O)c1ccccc1)c1ccccc1 (stereo not given)	0	-5	-23	2171	-5.2	2	1
CC(C)CC(C(=O)NCC1CCCO1)N(C(=O)Cn1nnc(-c2ccc(F)cc2)n1)c1ccccc1F (stereo not given)	-3	-2	-5	21995*	-1.9	3	6
NC(=O)c1ccc(SCC(=O)OCC(=O)NC2CCCCCCC2)c([N+](=O)[O-])c1	nt	-4	0	4032	-1.8	-9	5
CC(=O)CCc1oc2ccc(C)cc2c1-c1ccccc1	6	14	8	4434	17	14	4
CCOCCCNC(=O)c1ccc(Br)cc1	-4	2	-52	2763	0.5	5	17
O=C(CCNC(=O)c1ccccc1)N=Nc1c(O)[nH]c2ccccc12	-13	-1	nt	nt	-2.8	-10	-27
CC=C(C)C(=O)NCCN1C2=NCC(Cc3ccccc3)N2CC1Cc1ccc(OC)cc1 (stereo not given)	nt	-2	nt	nt	2.8	-1	11
CC1CCCC(NC(=O)COC(=O)/C=C/c2ccco2)C1C (stereo not given)	nt	4	-11	nt	1.7	-1	-3
O=C(NCCN1CCOCC1)C(=O)NCC1OCCN1C(=O)c1ccc(Cl)cc1 (stereo not given)	-9	-6	-8	4414	-5.4	-6	-5
COc1ccc(/C=N/NC(=O)c2ccc(Br)o2)cc1Cn1cc([N+](=O)[O-])cn1	13	nt	-30	7448	nt	nt	nt
CCn1cc(Br)c(C(=O)N(C)Cc2ccccc2)n1	1	0	4	5896	6.7	12	8
O=C(Nc1ccc(S(=O)(=O)N2CCCCC2)cc1)c1ccco1	-4	0	-33	6449	1.1	1	-2
COc1cccc(CNC(=O)C2CCN(c3nn4c(=O)cc(C)nc4s3)CC2)c1	3	15	-17	6674	5.6	-3	8
CCCCSc1nc(C)cc(C)c1S(=O)(=O)c1ccccc1C	-2	82	9	4788	2.8	nt	nt
O=C1NC(=O)N(c2ccccc2F)C(=O)/C1=C/c1ccc(Sc2nc3ccccc3[nH]2)o1	nt	7	-29	7148	5.9	5	2
COc1ccccc1CCC(=O)Nc1nccs1	8	12	-30	2909	3.5	1	1
Cc1ccc(S(=O)(=O)NCCCNS(=O)(=O)c2ccccc2[N+](=O)[O-])cc1	2	1	-17	4082	12	7	5
COc1ccc2c(C(=O)c3ccc(Cl)cc3)n(CCCC(N)=O)[n+]([O-])c2c1	3	nt	-20	3221	nt	nt	nt
CCOC(=O)c1c(C(C#N)C#N)cc(C)nc1C	-22	6	-5	2936	1.7	4	-1
COc1ccc([C@@H]2C[C@@H](c3ccccc3)Oc3cc(OC)cc(OC)c32)cc1	-8	nt	-7	4190	nt	nt	nt
CCN(CC)CCCNC(=S)N(Cc1cccnc1)Cc1cc2cccc(C)c2[nH]c1=O	4	4	-6	3426	0.9	11	2
CNc1nc(Nc2ccc([N+](=O)[O-])cc2)nc(OCC(F)(F)F)n1	-6	-10	-1	3861	0.9	-6	1
COC(=O)c1cnn2c(C(F)(F)F)cc(-c3ccco3)nc12	2	-11	8	4437	-3.1	-1	6
Cc1[nH]nc(N)c1-c1ccc(Cl)cc1	-15	-5	-20	3963	2.5	11	4
N/C(=N\OC(=O)COc1ccccc1)c1cccnc1	-5	19	-45	4850	3.2	5	-2
Cc1cc(NC(=O)CCC(=O)N(Cc2cccs2)C(C(=O)NC2CCCC2)c2ccccc2)no1 (stereo not given)	-18	6	-22	3590	3.2	nt	nt

Given with bars between the fields: part of the list above.
SMILES | BJeLR viability | ugtP null kill | PrP 5UTR inh | Bead autofluor | Sa RN4220 lethal | Mtb hypoxia inh | Mtb hypoxia inh growth
COc1cccc(CNC(=O)C2CCN(c3nn4c(=O)cc(C)nc4s3)CC2)c1 | 3 | 15 | -17 | 6674 | 5.6 | -3 | 8
CCCCSc1nc(C)cc(C)c1S(=O)(=O)c1ccccc1C | -2 | 82 | 9 | 4788 | 2.8 | nt | nt
O=C1NC(=O)N(c2ccccc2F)C(=O)/C1=C/c1ccc(Sc2nc3ccccc3[nH]2)o1 | nt | 7 | -29 | 7148 | 5.9 | 5 | 2
COc1ccccc1CCC(=O)Nc1nccs1 | 8 | 12 | -30 | 2909 | 3.5 | 1 | 1
Cc1ccc(S(=O)(=O)NCCCNS(=O)(=O)c2ccccc2[N+](=O)[O-])cc1 | 2 | 1 | -17 | 4082 | 12 | 7 | 5

(continued)
SMILES	BJeLR viability	ugtP null kill	PrP 5UTR inh	Bead autofluor	Sa RN4220 lethal	Mtb hypoxia inh	Mtb hypoxia inh growth
Cc1cc(C)nc(N2CCCC(C(=O)NCc3ccc4c(c3)OCO4)C2)n1 (stereo not given)	3	13	-19	4700	2.5	1	3
O=C1CCCN1CCCNS(=O)(=O)c1cccc(F)c1	3	6	-7	4194	8.0	-3	2
CCOCCCNC(=O)c1cc(Cl)c(NC(=O)C2=C(C)OCCS2)cc1OC	3	-2	-2	3708	14	11	8
CCCNC(=O)C(=O)Nc1cc2c3c(c1)CCC(=O)N3CCC2	8	5	-4	5940	3.1	13	1
COCCCN1C(=O)c2ccc(C(=O)Nc3ccc(C)cc3C)cc2C1=O	-3	1	-18	3582	3.9	-22	-9
Cc1cc(C)cc(NC(=S)N2CCCC2)c1	nt	0	-7	4792	0.2	13	7
COc1cccc(NC(=O)c2cccc(N3C(=O)C4C5C=CC(C5)C4C3=O)c2)c1 (stereo not given)	11	-3	-5	4264	-1.2	3	0
CN(Cc1ccccc1)C(=O)c1ccc(NC(=O)Cc2cccc(NC(=O)C3CCCN(C(=O)C4CCC4)C3)c2)cc1 (stereo not given)	nt	5	-5	2863	6.9	0	7
O=[N+]([O-])c1ccc(NCCNCCOc2nonc2-c2ccccc2)c([N+](=O)[O-])c1	4	11	4	3129	4.3	5	10
Cc1ccc(S(=O)(=O)c2nc(S(C)(=O)=O)sc2N2CCC(O)CC2)cc1	-10	6	-2	3022	3.3	-8	-7
N#C/C(=C\c1c(Cl)cccc1Cl)c1nc2ccccc2o1	-2	-5	-25	6198	-8.0	-3	-2
NC(=S)NN=Cc1cn(-c2ccccc2)nc1-c1cccnc1	nt	-5	nt	nt	2.9	7	15
CN(CC1CCOCC1)C(=O)CC1C(=O)NCCN1Cc1ccc(-c2ccccc2)cc1 (stereo not given)	4	0	-21	4486	3.6	-2	5
COc1ccccc1NC(=S)N1CCN(Cc2ccccc2)CC1	-4	1	-19	2503	1.1	-1	9
CCCCSc1nc(C)c(CC(=O)O)c(=O)[nH]1	0	-1	-17	2982	-17	25	-18
Cc1ccccc1CN1CCN(Cc2cc3ccccc3o2)CC1CCO (stereo not given)	6	8	-16	4625	-0.9	-3	8
CC(NC(=O)C(=O)NN=C1CCCCCCCCCCC1)c1ccccc1 (stereo not given)	1	-6	-7	4313	4.3	3	2
CC(C)C(C)NC(=O)COc1ncnc2ccccc12 (stereo not given)	7	-8	-5	2084	-2.4	nt	nt
O=P(N1CCCCCC1)(N1CCCCCC1)N1CC1	nt	1	-22	3414	4.4	4	6
O=C(Nc1ccc(-n2cccc2)cc1)C1CC1	-7	16	-6	3232	6.3	18	7
CCN(CC)CCOc1c(C)cccc1Cl	-6	3	-12	2670	4.0	2	-1
Cc1cc(=O)oc2cc(OCCCN3C(=O)c4ccccc4C3=O)ccc12	2	6	-25	2134	0.2	nt	nt
O=S(=O)(c1ccccc1)N1CCN(CC2CC3C=CC2C3)CC1 (stereo not given)	4	19	-10	2288	-1.7	1	7
CC1(C)N([O-])C(c2cccs2)=C[N+]1=O	3	-1	-15	9921	2.8	16	-2
CCCc1cc(=O)oc2cc(C)cc(OCC(=O)NCCCN3CCOCC3)c12	4	0	-9	5469	2.9	6	-3
COc1ccc(-n2nnnc2SCC(=O)NC(=O)Nc2ccc3c(c2)OCCO3)cc1	nt	2	-37	3029	-13	7	9
